Assay outcomes deposited in PubChem by National Center for Advancing Translational Sciences (NCATS).
SARS PLpro yeast = blocks SARS-CoV papain-like protease in a yeast assay; S. cerevisiae expressing SARS-CoV PLpro, growth rescue; control for the full effect not named in the record; Potency, µM (series often up to 32.9 µM), for the others: at the top dose activity, positive = growth rescue; AID 485353; hit rate 0.19% among 330,000; active means well fitted rising curve with a large enough effect; inconclusive means small, poorly fitted or top-dose-only effect; inactive means no such curve, though single readings can be large or run the other way; further: 0% is about no effect; nearly all actives have a fitted effect of over 55% in size; growth read by luminescence after 48 h
NS1 function inh = inhibitors of influenza NS1 protein function; S. cerevisiae slowed by influenza A NS1, growth recovery by OD600; Potency, µM (top dose mostly 46.1 µM), for the others: at the highest dose activity, positive = more growth; hit rate 0.4% among 270,000; AID 2326; active means well fitted rising curve with a large enough effect; inconclusive means small, poorly fitted or top-dose-only effect; inactive means no such curve, though single readings can be large or run the other way; further: nearly all actives have a fitted effect of over 50% in size
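In this qHTS, NS1 from influenza A is expressed in budding yeast, where it slows growth. Cells are switched from glucose to 2% galactose medium (pH 6.0, -URA), treated with compound, and growth recovery is read at OD600.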
Marburg entry inh = Marburg virus entry inhibition | Marburg virus pseudotyped entry inhibition, cell reporter; control for the full effect not named in the record; about a third of the inactives were read at about 46 µM | Potency, µM (highest dose often 37.8 µM), for the others: top-dose activity change, negative = inhibition, usual class: inhibitors | hit rate 1.8% among 300,000; active = well fitted inhibition curve with a large enough effect; inconclusive = small, poorly fitted or top-dose-only effect, or effect the other way; inactive = flat fitted curve, though single readings scatter; tested in HEK293 cells; about a fifth of its hits are not listed in these tables; further: on the % scale 0 is the no-effect control and ±100 the full control effect; luciferase read-out
RE007 growth inh = less growth of the S. pombe RE007 Vpr strain; AID 651644; Potency, µM (titrated, usually from 92.2 µM), for the others: at the highest dose activity change, negative = less growth; S. pombe RE007 Vpr strain, BacTiter-Glo ATP luminescence, 24 h; control for the full effect not named in the record; hit rate 0.21% among 360,000; active = well fitted falling curve with a large enough effect; inconclusive = small, poorly fitted or top-dose-only effect; inactive = no such curve, though single readings can be large or run the other way;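 further: on the % scale 0 is the no-effect control and ±100 the full control effect; nearly all actives have a fitted effect of over 50% in size; the assay follows cell death caused by Vpr and the record does not say whether a fall means rescue or toxicity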
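Fission yeast RE007 carrying one integrated HIV-1 vpr copy, seeded at OD 0.01 in PMG+AL medium with 23 nL pinned compound. Grown 24 h at 30 degrees; viability read by BacTiter-Glo luminescence after 5 min.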
LASV entry inh = inhibitors of Lassa virus binding or cell entry; Lassa virus pseudotype entry inhibition, cell reporter; control for the full effect not named in the record; Potency, µM (doses to about 37.9 µM), for the others: at the top dose activity change, negative = inhibition, most hits filed as inhibitors; hit rate 1.2% among 300,000; AID 540256; active means well fitted inhibition curve with a large enough effect; inconclusive means small, poorly fitted or top-dose-only effect, or effect the other way; inactive means flat fitted curve, though single readings scatter; tested in HEK293 cells; further: on the % scale 0 is the no-effect control and ±100 the full control effect; nearly all actives have a fitted effect of over 50% in size; luciferase read-out
Cruzain inh Det = inhibitors of Trypanosoma cruzi cruzain with detergent; P25779; hit rate 0.43% among 200,000; AID 1478; purified cruzain, Z-FR-AMC fluorescence, 0.01% Triton; Potency, µM, without a hit: max response, negative = inhibition, hits mostly inhibitors;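 further: plate controls were neutral wells for no effect and buffer without enzyme for full effect; nearly all actives have a fitted effect of over 40% in size; top concentration of the series not given in the record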
Target sequence (P25779 123-467 limits assumed): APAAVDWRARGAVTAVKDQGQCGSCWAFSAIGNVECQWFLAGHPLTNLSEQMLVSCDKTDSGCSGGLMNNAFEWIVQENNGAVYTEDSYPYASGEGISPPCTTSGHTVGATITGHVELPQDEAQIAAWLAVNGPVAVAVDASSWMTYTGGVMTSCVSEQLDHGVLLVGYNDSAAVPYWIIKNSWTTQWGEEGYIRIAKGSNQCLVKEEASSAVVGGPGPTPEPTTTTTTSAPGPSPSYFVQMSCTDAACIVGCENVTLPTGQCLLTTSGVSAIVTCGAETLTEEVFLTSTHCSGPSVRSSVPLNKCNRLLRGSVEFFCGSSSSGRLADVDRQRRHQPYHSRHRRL
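Detergent-containing run (0.01% Triton X-100) in acetate buffer pH 5.5 with 5 mM DTT: enzyme at 1.5 nM final, 15 min compound preincubation at room temperature, then 2 uM Z-FR-AMC substrate. Activity taken as 60 s fluorescence increase at 360/450 nm.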
StopGo reporter = FMDV 2A StopGo reporter, luciferase signal; hit rate 1.2% among 410,000; AID 1159524; human cells with a luciferase reporter of 2A StopGo recoding; control for the full effect not named in the record; Potency, µM (series often up to 57.9 µM), inactives show top-dose signal change, negative = less light; active = well fitted falling curve with a large enough effect; inconclusive = small, poorly fitted or top-dose-only effect; inactive = no such curve, though single readings can be large or run the other way; tested in HEK293T cells; further: on the % scale 0 is the no-effect control and ±100 the full control effect; nearly all actives have a fitted effect of over 45% in size; luciferase light after 4 h
Cruzain noTriton = inhibitors of Trypanosoma cruzi cruzain without detergent; P25779; purified cruzain, Z-FR-AMC fluorescence, no detergent; Potency, µM, for inactives: max response, negative = inhibition, usual class: inhibitors; hit rate 2.3% among 200,000;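 further: plate controls were enzyme without inhibitor for no effect and buffer without enzyme for full effect; nearly all actives have a fitted effect of over 40% in size; top concentration of the series not given in the record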
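Detergent-free condition (0.00005% Triton X-100) in acetate buffer pH 5.5 with DTT. 1.5 nM enzyme and compound were pre-mixed 15 min, then 2 uM Z-FR-AMC substrate added; reaction progress from fluorescence change between first and third reads (60 s).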
* hit, by the source's call; ? = inconclusive; . = not tested or not shown; [ ] = dose if it differs, or a comment. Unless noted, the call rests on the fitted dose curve; in most records, active means well fitted curve in the direction sought with a large enough effect; inconclusive means small, poorly fitted or top-dose-only effect, or another doubt; inactive means no such curve, though single readings can be large; an effect the other way counts as inactive or inconclusive. Potency means the concentration at half of the fitted maximal effect.

structure | SARS PLpro yeast | NS1 function inh | Marburg entry inh | RE007 growth inh | LASV entry inh | Cruzain inh Det | StopGo reporter | Cruzain noTriton
O=C(Nc1nnc(-c2ccco2)s1)c1ccccc1 | -8% | -50% | ? | -11% | ? | 1.5% | -38% | ?
N#Cc1ccc(C(=O)OCC(=O)N2CCCC2)cc1 | 2% | 10% | 2%[46.1 µM] | -14% | 3% | . | 3% | .
C=CCc1cccc2cc(-c3nc4ccc(C(=O)O)cc4[nH]3)c(=O)oc12 | . | . | . | . | 1%[46.1 µM] | 2.2% | 16µM* | 7%
CC(C)(CNC(=O)C1c2ccccc2-c2ccccc21)N1CCOCC1 | 1% | -1% | -20%[46.1 µM] | -16% | 20%[46.1 µM] | . | 18% | .
CCCn1c(O)c(CN2CCCC(C)C2)c(C)c(C#N)c1=O (stereo not given) | -3% | 2% | ? | 7% | 12% | -4.6% | -12% | -6%
CSc1ccc(C(=S)N2CCCC2)cc1 | 9% | -3% | . | 2% | . | . | 20% | .
CCC(=O)Nc1cccc(NC(=S)NC(=O)c2cc3ccccc3o2)c1 | -12% | . | ? | -3% | ? | . | 5% | .
Cc1sc(-c2ccncc2)nc1OC(=O)c1ccccc1 | 6% | -45% | ? | -21% | -2% | -18% | 0% | -10%
COc1ccc(C2C3=C(CCCC3=O)Nc3nc(SCc4ccc(C(=O)O)cc4)nn32)cc1OC (stereo not given) | 0% | 9% | 1% | 9% | . | 2.4% | -4% | -5%
COc1ccc(NC(=O)NCc2ccccc2F)cc1OC | -1% | 1% | . | 13% | . | . | 12% | .
COc1ccc([N+](=O)[O-])cc1NC(=O)c1ccc(N2C(=O)CCC2=O)cc1 | 1% | -4% | -1%[46.1 µM] | 2% | -1% | . | -23% | .
O=C(CN1CCN(Cc2ccc(F)cc2Cl)CC1)NCc1ccccc1 | 2% | -3% | . | 2% | . | . | 27% | .
COCCN(Cc1ccccc1)C(=S)Nc1ccc(OC(F)F)cc1 | ? | -9% | ? | 6% | 16µM* | -5.4% | 23% | 2%
CCOC(=O)C1(CCCc2ccccc2)CCN(C(=O)c2ocnc2C)CC1 | 0% | -10% | -3%[46.1 µM] | 35% | 2.8µM* | . | -18% | .
CCOC(=O)N1CCC(NCCNC(=O)c2cccs2)CC1 | 8% | -1% | 0% | -8% | -23% | 4.5% | -20% | 2%
Cn1c(=O)oc2cc(S(=O)(=O)CCC(=O)NCc3ccc(Cl)cc3)ccc21 | . | . | . | . | 8%[46.1 µM] | -1.7% | -19% | 6%
O=C(CCCCCn1c(=S)[nH]c2ccc(N3CCOCC3)cc2c1=O)NCc1ccc(Cl)cc1 | 0% | . | ? | -10% | ? | . | ? | .
CC(=O)OC1(c2ccccc2)CCN(C)C2CCCCC21 (stereo not given) | 4% | 4% | -8% | -10% | -14% | 2.1% | . | -13%
Cc1cc(-c2nc(C)c(-c3nnc(SCC(=O)Nc4cc(Cl)cc(Cl)c4)n3C)s2)no1 | -1% | 1% | ? | -14% | 10%[46.1 µM] | . | ? | .
COc1cccc(NC(=S)Nc2cc(C)cc(C)n2)c1 | 2% | -3% | ? | 0% | 8% | . | 53%[activator] | .
CCCCN1C(=O)CN(C2CCCCCC2)C(=O)C1c1ccc(OC(C)C)c(OC)c1 (stereo not given) | . | . | . | . | -4%[46.1 µM] | 0.6% | -9% | ?
CCOc1ccccc1CN1CCNC(=O)C1CC(=O)NCc1ccccn1 (stereo not given) | -4% | 10% | -2%[46.1 µM] | 14% | 1%[46.1 µM] | . | -15% | .
COc1ccccc1NC(=O)Cc1nnc(SCC(=O)Nc2nccs2)n1C | 2% | 11% | 7%[46.1 µM] | 4% | 7%[46.1 µM] | . | 6% | .
Cc1cc(C(=O)NCCc2ccc(Cl)cc2)no1 | 0% | -2% | ? | 46% | -12%[46.1 µM] | . | -2% | .
CCn1c(SCC(=O)Nc2cccc(C(C)=O)c2)nnc1C(C)C | 0% | -2% | -1% | 0% | 16% | 0.5% | -9% | -5%
Cc1c(Br)c(=O)oc2c(C)c(O)ccc12 | 12% | -8% | 11% | -13% | 6% | -0.1% | -19% | 3%
C[C@H](NC(=O)c1ccco1)C(=O)Nc1ccc2c(c1)OCO2 | 2% | 0% | 4%[46.1 µM] | 12% | 29%[46.1 µM] | . | 5% | .
O=C1CN(C(=O)COC(=O)CNS(=O)(=O)/C=C/c2ccccc2)c2ccccc2N1 | -4% | 2% | -6% | 6% | -1% | . | 3% | .
COC(=O)C1CCN(C(=O)COC(=O)Cc2c[nH]c3ccccc23)CC1 | 9% | 1% | -24% | 9% | -2% | -1.7% | -19% | 17%
CCOC(=O)c1c(C)[nH]c(C)c1S(=O)(=O)N1CCC(C(=O)N2CCN(c3cc(C)ccc3C)CC2)CC1 | . | . | . | . | -17%[46.1 µM] | -3.4% | -24% | ?
COc1ccc(C(=O)N/N=C/C(C)c2ccccc2)cc1OC (stereo not given) | 2% | 7% | 0% | 2% | -4% | 1.1% | -5% | 3%
CCCn1cnc2cc(NC(=O)c3cc(OC)c(OC)c(OC)c3)ccc21 | . | . | 8%[46.1 µM] | . | ? | -5.6% | -3% | 21%
N/C(=N\N=C\c1ccc2c(c1)OCO2)SC1CC(=O)N(c2ccc(C(=O)O)cc2)C1=O (stereo not given) | 22% | . | 7%[46.1 µM] | 2% | ? | . | -3% | .
O=C(NCc1ccncc1)Nc1ccccc1Cl | -2% | 4% | -3% | 9% | 1% | -0.7% | -11% | -8%
Cc1ccc(-c2nc3ccccc3nc2Cl)cc1 | -1% | . | -13% | 11% | 14% | . | 41%[activator] | .
Oc1ccc(-c2cnc3ccccc3n2)cc1 | . | . | -24% | 5% | ? | . | -20% | .
Cc1oc(-c2cc(F)ccc2F)nc1CN1CCN(c2ncnc3ccccc23)CC1 | -3% | 5% | . | -23% | . | . | 16µM* | .
O=c1sc(Nc2ccccc2)nc2ccsc12 | -21% | -56% | ? | ? | ? | -6.5% | 10% | -1%
Cc1cc(=O)oc2c3c(ccc12)OC/C3=N/N | 0% | 2% | . | -8% | . | . | -16% | .
COC(=O)c1cn(NC(=O)C2CCC(C(C)(C)C)CC2)c(=O)c2ccccc12 (stereo not given) | -1% | 11% | -2% | 15% | 2% | -0.5% | -2% | -6%
CCCCCCn1c(=O)c(C(=O)Nc2cnccn2)c(O)c2ccccc21 | 0% | -5% | ? | -8% | ? | . | ? | .
CCn1c(COc2ccc3ccccc3c2C)nnc1SCC(=O)Nc1cccc(C(=O)O)c1 | 1% | -5% | 21% | -8% | 25% | . | -7% | .
CCCCCCCCS(=O)C1CCS(=O)(=O)C1 (stereo not given) | 6% | 13% | ? | 2% | 0% | 4.6% | -4% | 16%
Cc1[nH]c(C)c(S(=O)(=O)N(C)Cc2ccccc2)c1C(=O)N1CCCCC1 | 9% | 0% | . | -7% | . | . | 0% | .
Cc1nc(N2CCCC2)c2c(C(=O)Nc3cccc(Cl)c3C)c(C)oc2n1 | . | . | . | . | 36%[46.1 µM] | -7.0% | -7% | 26%
CCN(Cc1ccccc1)C(=O)c1cc(S(=O)(=O)N2CCOCC2)cn1C | -5% | 12% | . | 2% | . | . | -3% | .
COc1ccc2[nH]c(=O)c(CNc3ccccc3)cc2c1 | 1% | 13% | 26% | -1% | ? | -12% | 9% | 7%
CC(C)(C)c1ccc(CNC(=O)c2ccc3c(c2)NC(=O)CO3)cc1 | 4% | . | ? | 13% | -24% | . | 0% | .
CCn1c(SCC(=O)Nc2ccc(C)cc2)nnc1-c1ccccn1 | 0% | -2% | 15%[46.1 µM] | 31% | -13% | . | -20% | .
CC(C(=O)c1ccc(-c2ccccc2)cc1)[n+]1ccccc1 (stereo not given) | -13% | -15% | 10µM* | -17% | ? | -5.2% | -21% | -10%

The list continues:
structure | SARS PLpro yeast | NS1 function inh | Marburg entry inh | RE007 growth inh | LASV entry inh | Cruzain inh Det | StopGo reporter | Cruzain noTriton
O=C(Nc1ccccc1)N(Cc1cccs1)C1CCCC1 | 0% | -10% | -1%[46.1 µM] | -14% | 5% | 1.0% | -27% | -4%
Fc1cccc(Cl)c1CSc1nnc(CN2CCOCC2)n1-c1ccccc1 | 8% | -4% | 4% | 14% | -17% | 2.3% | 19% | 0%
Cc1cc(C)cc(NC(=O)c2cc(S(=O)(=O)N3CCCCC3)c[nH]2)c1 | . | . | . | . | ? | 0.6% | 14% | -18%
O=C(Cn1cncn1)NCc1cccc2ccccc12 | -12% | 16% | ? | -3% | 2% | 3.6% | 18% | 2%
O=C(N/N=C/c1ccc(O)cc1)c1cccc(N/N=C/c2ccc(O)cc2)c1 | 0% | 11% | . | 1% | . | . | 0% | .
COc1cccc(OCCNc2cc(Cl)ccc2[N+](=O)[O-])c1 | -4% | -12% | 2% | -5% | 1% | -1.3% | . | 1%
O=C(C1CCN(S(=O)(=O)c2ccc(Cl)cc2)CC1)N1CCCC1 | 0% | -1% | 2%[46.1 µM] | 25% | 12% | . | 6% | .
CCOc1cc(S(=O)(=O)N2CC=C(c3ccc(F)cc3)CC2)c(OCC)cc1-n1cnnn1 | -4% | -23% | ? | 0% | -27% | -0.1% | . | -5%
CC(=O)c1cccc(NC(=S)N2CCc3ccccc32)c1 | 2% | 8% | . | 19% | . | . | -19% | .
CC(C)OC(=O)CN1C(=O)C(=O)c2ccccc21 | -19% | -3% | ? | ? | -25% | 0.6% | 35%[activator] | 9%
C=CCn1c(SCc2csc(C)n2)nc2sc3c(c2c1=O)CCC(C)C3 (stereo not given) | -6% | 16% | ? | -10%[3.69 µM] | -20% | -11% | -5% | 28%
COc1ccc(NC(=S)N(C)CC2COc3ccccc3O2)cc1 (stereo not given) | -1% | -3% | . | -9% | . | . | -5% | .
N#Cc1cc2[nH]c3ccccc3c2[n+](-c2ccc([N+](=O)[O-])cc2)c1N | 14% | . | ? | -8% | . | . | ? | .
CCOc1cc(Br)c(C2C(C(=O)OC)=C(C)NC3=C2C(=O)c2ccccc23)cc1OCC (stereo not given) | . | . | -6%[46.1 µM] | . | 25%[46.1 µM] | -6.3% | -25% | ?
